HPGD inh – HPGD (human) dehydrogenase inhibition; 4.3% of 150,000 active; P15428; AID 894; purified HPGD, NADH fluorescence kinetic, PGE2 substrate; Potency, µM, inactives show at the top dose activity change, negative = inhibition, hits mostly inhibitors; active = well fitted inhibition curve with a large enough effect (not every such curve was filed as active); inconclusive = small, poorly fitted or top-dose-only effect, or another doubt; inactive = no such curve, though single readings can be large or run the other way;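 note: top concentration of the series not given in the record; plate controls included wells without enzyme; inactives centre near -10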
Target sequence (P15428 whole entry, looked up): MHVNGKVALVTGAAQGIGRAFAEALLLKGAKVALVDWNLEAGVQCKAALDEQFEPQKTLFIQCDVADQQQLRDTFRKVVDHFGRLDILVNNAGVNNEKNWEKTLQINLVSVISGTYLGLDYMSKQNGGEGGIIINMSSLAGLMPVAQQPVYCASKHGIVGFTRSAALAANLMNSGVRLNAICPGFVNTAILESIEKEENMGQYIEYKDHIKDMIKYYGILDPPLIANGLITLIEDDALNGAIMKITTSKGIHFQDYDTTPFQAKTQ
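NADH formation kinetics: reaction with 30 uM PGE2 and 1 mM NAD+ (final), 20 nM enzyme, Tris-HCl pH 8 with Tween 20, after 15 min compound preincubation at room temperature. Fluorescence change, last versus first of five reads.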
* = called active by the depositor. % is set by controls: 0 for no effect and ±100 for the full control effect; potency is the fitted concentration of half-maximal effect. A portion of the library; rates above refer to the full screens.

`CC1(C)OC2CC3C4CC(F)C5=CC(=O)CC[C@@]5(C)C4C(O)C[C@@]3(C)[C@]2(C(=O)CO)O1` (stereo partly specified) gave HPGD inh -2.6%.
For Cc1cc(C(F)F)n2nc(C(=O)Nc3sc4c(c3C#N)CCC(C)C4)nc2n1 (stereo unspecified) the results were HPGD inh -17.6%.
Screening CCOC(=O)C1CCN(C(=O)c2ccccc2NC(=O)c2ccc(Cl)cc2)CC1 returned HPGD inh -8.4%.
For CC1CCCCN1C(=O)Cn1nnc(-c2cccnc2)n1 (stereo unspecified) the results were HPGD inh -15.3%.
Screening CCCN(CC1CC1)C(=O)CSc1ncnc2sc(C)c(C)c12 returned HPGD inh 28.2µM*.
Screening Cn1cnnc1SCC(=O)c1ccc2c(c1)OCO2 returned HPGD inh -4.9%.
Screening Cc1cc2nn(-c3ccccc3)nc2cc1NC(=O)c1cccs1 returned HPGD inh inconclusive.
For COc1ccc2c(c1)[nH]c(=O)c1sc3ccccc3c12 the results were HPGD inh inconclusive.
CCN(CC)S(=O)(=O)c1cccc(C(=O)N[C@H](C(=O)Nc2nc3ccc(F)cc3s2)C(C)C)c1 was read as HPGD inh -18.6%.
Screening CC1CC(C)CN(C(=O)c2ccc(N3CC4CC(C3)c3cccc(=O)n3C4)c([N+](=O)[O-])c2)C1 (stereo unspecified) returned HPGD inh -6.9%.
For Cc1nc2c(C(=O)N3CCCCC3)cnn2c(C)c1Cc1ccccc1F the results were HPGD inh inconclusive.
For CCOc1ccc(C(=O)Nc2cc(S(=O)(=O)Nc3ccccc3Cl)ccc2N2CCOCC2)cc1 the results were HPGD inh inconclusive.
CN1C(=O)C2(C(C#N)=C(N)Oc3n[nH]c(-c4ccc(Cl)cc4)c32)c2ccccc21 (stereo unspecified) was read as HPGD inh -1.0%.
O=C(c1cccs1)N1CCN(S(=O)(=O)c2ccccc2)CC1 was read as HPGD inh -1.4%.
`COc1ccc(-c2nc3n(n2)C(c2ccccc2Cl)C(C(N)=O)=C(C)N3)cc1` (stereo unspecified) gave HPGD inh -6.3%.
For NC(=O)CC[C@@H]1NC(=O)[C@H](CO)NC(=O)c2cc([N+](=O)[O-])cc(I)c2NCC[C@@H](C(N)=O)NC(=O)[C@H](Cc2ccc(O)cc2)NC1=O the results were HPGD inh -10.4%.
O=C(CCN1C(=O)C2C3C=CC(C3)C2C1=O)NCCc1ccccc1 (stereo unspecified) was read as HPGD inh -9.6%.
CC(C)c1ccc(/C=C2\C=C(c3ccc4ccccc4c3)OC2=O)cc1 was read as HPGD inh -8.4%.
Screening CC(CNC(=O)C1CCCCC1)NC(=O)C1CCCCC1 (stereo unspecified) returned HPGD inh -7.4%.
`CCOC(=O)c1[nH]c2c(c1-c1ccccc1)C(=O)CC(c1ccc(OC)c(OC)c1)C2` (stereo unspecified) gave HPGD inh -2.5%.
`Cc1ccc(-n2c(C)cc(C=C(C#N)C#N)c2C)cc1` gave HPGD inh -7.3%.
For COc1ccc(/C=C(\C#N)C(=O)OCC(=O)Nc2ccc(C(C)(C)C)cc2)cc1 the results were HPGD inh inconclusive.
Screening Cc1nn2c(N3CCN(c4ccccn4)CC3)cc(C(C)C)nc2c1-c1ccccc1 returned HPGD inh inconclusive.
O=C(NN=C1CCCCCC1)NC1CCCCC1 was read as HPGD inh -20.7%.
`COc1ccc(Cn2c(CCCO)nc3ccccc32)cc1OC` gave HPGD inh -4.9%.
Screening CC(C)COC(=O)n1c(SCC(=O)N(C)C)nc2ccccc21 returned HPGD inh -18.4%.
For O=C(CCc1nc(-c2ccccc2)no1)NCC1CCCO1 (stereo unspecified) the results were HPGD inh 25.1µM*.
For CN(C)CCCNS(=O)(=O)c1ccc(Oc2ncc(C(F)(F)F)cc2Cl)cc1 the results were HPGD inh -13.1%.
For CCCOc1ccc(C(=O)Nc2nc(C)c(Cc3ccc4c(c3)OCO4)s2)cc1 the results were HPGD inh inconclusive.
Screening COc1ccc(Cn2nnnc2C(c2cccs2)N2CCOCC2)cc1 (stereo unspecified) returned HPGD inh -3.9%.
O=C(NCC1CCCO1)C1CCC(=O)N1Cc1ccc(F)cc1 (stereo unspecified) was read as HPGD inh -7.8%.
`C=CC[N+](C)(C)C/C(Cl)=C(\Cl)c1ccccc1` gave HPGD inh -1.9%.
For CC[C@H](C)[C@@H](NC(=O)O[C@@H]1C(=O)c2ccc(OC)cc2O[C@H]1c1ccc2c(c1)OCO2)C(=O)OC the results were HPGD inh 0.4%.
Screening COC(=O)c1c(C(=O)OC)c(-c2ccc(C)cc2)n2c1CCC2 returned HPGD inh -11.0%.
C=C(C)CNC(=S)NNC(=O)c1cc(C)oc1C was read as HPGD inh -8.1%.
Screening CC(C)c1ccc(N(CC(=O)N/N=C/c2ccc(OC3CSC3)cc2)S(=O)(=O)c2ccccc2)cc1 returned HPGD inh -12.8%.
`COc1ccc2c(c1)CCc1c(C(=O)NCCc3ccc(OC)c(OC)c3)noc1-2` gave HPGD inh 14.7%.
For Nc1cccc(CCc2nc3ccccc3[nH]2)c1 the results were HPGD inh -2.8%.
Screening COc1ccc(C(CC(=O)O)NC(=O)c2ccco2)cc1 (stereo unspecified) returned HPGD inh -2.0%.
CCC[C@@H]1C[C@@]1(CCC)C(NC(=O)c1ccc(-c2ccccc2)cc1)c1cccc(Cl)c1 (stereo partly specified) was read as HPGD inh -1.2%.
Screening Cc1cccc(C)c1OCC(=O)N/N=C/c1cccn1C returned HPGD inh -6.4%.
`Cc1cnc(CNc2ccnc(-c3ccc(C(=O)N(C)C)cc3)n2)cn1` gave HPGD inh 5.62µM*.
Screening CC(C)C[C@@H](CC(=O)N[C@@H](CCCN)CC(=O)N[C@@H]1CCCC[C@H]1C(=O)N[C@H](CC(=O)N[C@@H](CCC(=O)O)CC(=O)O)Cc1ccccc1)NC(=O)[C@@H]1CNCC[C@H]1N returned HPGD inh -2.4%.
Screening CN(C)/C(CN1CCCCC1)=C1\N=C(c2ccccc2)OC1=O returned HPGD inh -8.8%.
For C/C1=C/CC(C)(C)/C=C/C/C(C)=C/CC1 the results were HPGD inh -8.8%.
`COc1ccc(C2=Nn3c(nnc3-c3cccnc3)SC2)cc1` gave HPGD inh -17.1%.
For Cc1ccc(S(=O)(=O)Nc2ccccc2C(=O)Nc2sccc2C(=O)NN(C)C)cc1 the results were HPGD inh -15.8%.
For Cc1ccc(C)c(NC(=O)C(=O)NCc2ccccn2)c1 the results were HPGD inh -10.0%.
Screening C=CCn1c(SCC(=O)O)nnc1-c1ccc(C(C)(C)C)cc1 returned HPGD inh -20.9%.
Screening C=CCn1c(NCCO)nc2sc3c(c2c1=O)CCC3 returned HPGD inh -7.3%.
Screening COC(=O)[C@@H]1C[C@H]2CC[C@H](O)C[C@H]2N1Cc1c(F)cccc1Cl returned HPGD inh -10.7%.
O=C(CN1C(=O)CC(c2ccccc2)=Nc2ccccc21)NC1CCCCC1 was read as HPGD inh 2.7%.
`CCOC(=O)Cn1nnc(-c2ccc(OCC(C)C)cc2)n1` gave HPGD inh -5.5%.
`CCNc1nc(NCC)nc(SCCOc2ccc(C)cc2)n1` gave HPGD inh -15.2%.
Screening Nc1nc(SC/C=C\c2ccccc2)c2[nH]cnc2n1 returned HPGD inh -7.6%.
`COc1cc(CC(=O)NCCc2ccc(S(N)(=O)=O)cc2)cc(OC)c1OC` gave HPGD inh -10.4%.
For O=C(COc1ccc(Cl)cc1)N1CCN(c2ccc([N+](=O)[O-])c(N3CCOCC3)c2)CC1 the results were HPGD inh -10.1%.
`Cc1cc(C)c(OCCCCCNCCO)c(C)c1` gave HPGD inh -4.9%.
Screening COc1ccc(CCN2C(=O)C3C4C=CC(C3C2=O)C2C(=O)N(CCc3ccc(OC)c(OC)c3)C(=O)C42)cc1OC (stereo unspecified) returned HPGD inh -16.0%.
CCOC(=O)C1=C(c2ccccc2)OC(N)=C(C#N)C1C(C)C (stereo unspecified) was read as HPGD inh 1.1%.
Screening O=C(Nc1nncs1)c1ccc(N2C(=O)C3C4C=CC(C4)C3C2=O)cc1 (stereo unspecified) returned HPGD inh -13.4%.
For c1ccc(CSc2nnc(-c3ccncc3)o2)cc1 the results were HPGD inh -18.2%.
For CSC1=C(C#N)C(c2cccc(Br)c2)CC(=O)N1 (stereo unspecified) the results were HPGD inh -15.2%.
C/C(O)=c1/ccc2cccc3nc(C)nc1c23 was read as HPGD inh inconclusive.
For Cc1cccc(Cc2nnc(NC(=O)c3cccc(S(=O)(=O)N4CCOCC4)c3)s2)c1 the results were HPGD inh -15.1%.
For C#CCOCCOCCOCCNc1nc(N2CCN(C(=O)[C@H]([C@@H](C)CC)n3cc(CCCN=C(N)N)nn3)CC2)nc(N2CCN(C(=O)[C@H](CCCCN)n3cc(CCCC)nn3)CC2)n1 the results were HPGD inh -7.6%.
CC1(C)C(c2cccs2)=[N+]([O-])C2(CCCCC/C2=N\NC(N)=S)N1O (stereo unspecified) was read as HPGD inh -13.7%.
For COc1ccc(C2C(C(=O)c3cccs3)=C(O)C(=O)N2c2nncs2)cc1 (stereo unspecified) the results were HPGD inh -17.0%.
`Nc1nnc(-c2cc3ccccc3oc2=O)s1` gave HPGD inh inconclusive.
For O=C(NCc1ccc(Cl)cc1)c1ccc(Br)o1 the results were HPGD inh 35.5µM*.
For CC(C)(C)C(=O)N(CCN(C(=O)C(C)(C)C)c1ccccc1)c1ccccc1 the results were HPGD inh -0.8%.
O=C1C(=C(c2ccccc2)c2ccccc2)Nc2ccccc21 was read as HPGD inh -3.6%.
C=CCn1c(NC(=O)c2ccc(C)cc2)c(C#N)sc1=N was read as HPGD inh -18.9%.
`CSc1nsc(SC)c1NC(=O)OCc1ccccc1` gave HPGD inh -25.9%.
Screening CC(C)OC(=O)CN1C(=O)C(C)(C)Oc2ccc(C(=O)NC3CC3)cc21 returned HPGD inh -12.7%.
`CCCN1CNC(=S)N(CCc2ccccc2)C1` gave HPGD inh 1.4%.
`O=C(CSc1nc(O)c(Cc2ccccc2F)c(=O)[nH]1)N1CCCCCC1` gave HPGD inh -15.5%.
COCC(=O)N(Cc1ccc(OC)cc1)Cc1nc2ccccc2c(=O)[nH]1 was read as HPGD inh -2.4%.
`COC(=O)Cc1ccc(NC(=O)C(c2ccccc2)c2ccccc2)cc1` gave HPGD inh -2.1%.
Screening Cc1ccc(NC(=O)c2cc(S(=O)(=O)N3CCCCC3)cs2)cc1 returned HPGD inh -10.5%.
For CN(C)S(=O)(=O)c1ccc(C(=O)N2CCOCC2)cc1 the results were HPGD inh -8.1%.
O=C(CSc1nc(N2CCCCC2)nc(N2CCCCC2)n1)c1ccccc1 was read as HPGD inh -18.4%.
Screening Cc1ccc(C(=O)N2NC(c3ccc(F)cc3)C3C(=O)N(c4ccc(C)cc4)C(=O)C32)cc1 (stereo unspecified) returned HPGD inh -4.2%.
COc1ccccc1NC(=O)c1ccc(CN(c2cc(Cl)ccc2C)S(=O)(=O)c2ccccc2)cc1 was read as HPGD inh -0.2%.
Screening Fc1ccc(C[n+]2csc3ccccc32)cc1 returned HPGD inh 10µM*.
For N#C/C(=C(/O)CN1CCOCC1)c1nc2ccccc2s1 the results were HPGD inh -23.7%.
Screening CC(C)CC(NC(=O)OCC1c2ccccc2-c2ccccc21)C(=O)O (stereo unspecified) returned HPGD inh -8.9%.
For COc1ccc(NC(=O)C2CCCN2c2ccc(OC)c(OC)c2)cc1OC (stereo unspecified) the results were HPGD inh -7.2%.
For COCCCNC(=O)c1ccc(Cn2c(=O)c3ccccc3n(Cc3ccc(C)cc3)c2=O)cc1 the results were HPGD inh -18.4%.
CCCS(=O)(=O)c1c(S(=O)(=O)CCC)c2c3ccccc3ccn2c1C(N)=O was read as HPGD inh -3.4%.

Entries shown so far that contain a thiophene ring, fused or not, in the order listed:
For Cc1cc(C(F)F)n2nc(C(=O)Nc3sc4c(c3C#N)CCC(C)C4)nc2n1 (stereo unspecified) the results were HPGD inh -17.6%.
Screening CCCN(CC1CC1)C(=O)CSc1ncnc2sc(C)c(C)c12 returned HPGD inh 28.2µM*.
Screening Cc1cc2nn(-c3ccccc3)nc2cc1NC(=O)c1cccs1 returned HPGD inh inconclusive.
For COc1ccc2c(c1)[nH]c(=O)c1sc3ccccc3c12 the results were HPGD inh inconclusive.
O=C(c1cccs1)N1CCN(S(=O)(=O)c2ccccc2)CC1 was read as HPGD inh -1.4%.
Screening COc1ccc(Cn2nnnc2C(c2cccs2)N2CCOCC2)cc1 (stereo unspecified) returned HPGD inh -3.9%.
For Cc1ccc(S(=O)(=O)Nc2ccccc2C(=O)Nc2sccc2C(=O)NN(C)C)cc1 the results were HPGD inh -15.8%.
Screening C=CCn1c(NCCO)nc2sc3c(c2c1=O)CCC3 returned HPGD inh -7.3%.
CC1(C)C(c2cccs2)=[N+]([O-])C2(CCCCC/C2=N\NC(N)=S)N1O (stereo unspecified) was read as HPGD inh -13.7%.
For COc1ccc(C2C(C(=O)c3cccs3)=C(O)C(=O)N2c2nncs2)cc1 (stereo unspecified) the results were HPGD inh -17.0%.
Screening Cc1ccc(NC(=O)c2cc(S(=O)(=O)N3CCCCC3)cs2)cc1 returned HPGD inh -10.5%.

Next part
Screening COc1cccc(-n2c(=O)c3cc(OC)c(OC)cc3n(CC(=O)Nc3cc(C)[nH]n3)c2=O)c1 returned HPGD inh inconclusive.
`COc1cc2c(cc1NCc1ccccn1)oc1ccccc12` gave HPGD inh inconclusive.
Cc1nnc(SCc2ccc(Cl)cc2)n1CC1CCCO1 (stereo unspecified) was read as HPGD inh -11.5%.
For COc1ccc(NC(=O)CSc2nc3[nH]ncc3c(=O)n2-c2ccccc2OC)cc1OC the results were HPGD inh -12.4%.
For Oc1ccc(CN2CCCCC2)nc1-c1ccccc1 the results were HPGD inh inconclusive.
CC1CCCN(S(=O)(=O)c2ccc(N(C(=O)c3cnccn3)C(C(=O)NC3CCCCC3)c3cccs3)cc2)C1 (stereo unspecified) was read as HPGD inh -15.8%.
`CCc1cccc2c(C(=O)COC(=O)c3cccc(S(=O)(=O)N(C)C4CCCCC4)c3)c[nH]c12` gave HPGD inh inconclusive.
`CC(C)(C)c1ccc(COn2c(=O)c(-c3ccco3)[n+]([O-])c3ccccc32)cc1` gave HPGD inh -23.7%.

Source: PubChem
